KAT2A inh: blocks human GCN5L2 histone acetyltransferase. Q92830. GCN5L2 HAT assay, ThioGlo1 CoA-SH fluorescence. Potency, µM (top dose mostly 58.9 µM), for inactives: top-dose activity change, negative = inhibition, usual class: inhibitors. hit rate 0.21% among 390,000. AID 504327; active = well fitted inhibition curve with a large enough effect; inconclusive = small, poorly fitted or top-dose-only effect, or another doubt; inactive = no such curve, though single readings can be large or run the other way
Target sequence (Q92830 whole entry, looked up): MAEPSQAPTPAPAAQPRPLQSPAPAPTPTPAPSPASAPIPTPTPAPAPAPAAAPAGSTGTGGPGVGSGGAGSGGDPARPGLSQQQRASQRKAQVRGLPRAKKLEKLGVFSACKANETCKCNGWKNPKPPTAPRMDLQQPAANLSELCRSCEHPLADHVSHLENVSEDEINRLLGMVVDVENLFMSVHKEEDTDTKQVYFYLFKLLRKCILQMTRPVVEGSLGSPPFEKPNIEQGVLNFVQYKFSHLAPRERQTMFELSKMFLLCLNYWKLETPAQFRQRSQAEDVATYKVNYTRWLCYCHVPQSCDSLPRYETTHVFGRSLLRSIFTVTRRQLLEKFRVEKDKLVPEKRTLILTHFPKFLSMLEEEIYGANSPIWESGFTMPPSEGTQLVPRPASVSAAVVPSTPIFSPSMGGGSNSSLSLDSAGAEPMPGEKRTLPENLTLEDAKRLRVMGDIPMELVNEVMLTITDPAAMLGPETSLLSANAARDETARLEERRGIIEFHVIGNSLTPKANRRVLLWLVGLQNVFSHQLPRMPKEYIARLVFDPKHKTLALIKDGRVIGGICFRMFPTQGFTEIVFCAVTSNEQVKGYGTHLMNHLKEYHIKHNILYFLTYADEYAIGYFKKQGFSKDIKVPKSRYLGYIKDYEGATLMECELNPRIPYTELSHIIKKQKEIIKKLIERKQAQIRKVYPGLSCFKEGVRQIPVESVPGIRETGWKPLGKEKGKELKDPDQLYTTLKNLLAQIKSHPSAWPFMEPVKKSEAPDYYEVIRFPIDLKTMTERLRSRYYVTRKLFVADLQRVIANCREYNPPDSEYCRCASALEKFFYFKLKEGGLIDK
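Titration-based screen in which CoA formation is detected via maleimide probe ThioGlo1 (50uM) turning fluorescent on thiol reaction; substrates H3(1-25) 75uM and acetyl-CoA 70uM, GCN5L2 20nM, 20 min incubation at room temperature.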
* hit, by the source's call; ? = inconclusive; & = joins results of further samples; [ ] = remark or other dose. % is set by controls: 0 for no effect and ±100 for the full control effect; potency is the fitted concentration of half-maximal effect. This is a subset, and most or all hits are left out here.

SMILES	KAT2A inh
CC(C)(C)c1[nH]nc2c1C(C1C=CCCC1)C(C#N)=C(N)O2 (configuration not stated)	0%
COc1ccc(OCC(=O)N2CCN(C(=O)COc3ccc(Br)cc3)CC2)cc1	-12%
CN1[C@@H]2CC(OC(=O)[C@H](CO)c3ccccc3)C[C@@H]1[C@H]1O[C@H]12 (some centres not stated)	-4%
Cc1cc(C(=O)Nc2ccc(Cl)c(S(=O)(=O)N3CCOCC3)c2)c2ccccc2n1	-15%
C[n+]1cc[nH]c1SCC(=O)c1ccc(Cl)cc1	2%
CCN1CCN(c2csc3ccc(C)cc3c2=O)CC1	10%
CCCCOc1ccccc1-c1cc(C(=O)O)[nH]n1	-1%
Cc1ccc(-c2noc(CSc3nnc(C)n3-c3ccc(C)cc3)n2)cc1	-6%
COc1ccc(OC)c(S(=O)(=O)Nc2cc(C(=O)O)ccc2N2CC3CC(C2)c2cccc(=O)n2C3)c1 (configuration not stated)	-8%
CCN1CCCC1CNC(=O)CS(=O)(=O)Cc1nc(-c2ccccc2C)oc1C (configuration not stated)	-5%
CCC[C@@H](CN1CCC[C@H]1CN1C(N)=NC[C@H]1CC(C)C)N1C[C@@H]([C@H](C)CC)N(CCc2ccc(Cl)c(Cl)c2)C1=N	-7%
NC(=O)Nc1ccc(C(=O)OCC(=O)Nc2ccc(Cl)cn2)cc1	-9%
COc1ccc(NS(=O)(=O)c2cccc(C(=O)NCC(c3cccs3)N3CCOCC3)c2)cc1 (configuration not stated)	0%
COc1ccc(C(=O)Nc2nc3c(s2)CCCC3)cc1S(=O)(=O)N1CCCc2ccccc21	-5%
CCCCOC(=O)c1cc(=O)[nH]c2ccccc12	-3%
Cc1c(C(=O)NCc2ccc3c(c2)OCO3)oc2ccc(Br)cc12	-1%
CSCCC(NC(=O)c1cccc(C)c1)C(=O)OCC(=O)NC(=O)c1cccn1C (configuration not stated)	-10%
CCCc1nnc(NC(=O)NCCN2C(=O)C3C4C=CC(C4)C3C2=O)s1 (configuration not stated)	2%
O=C(Oc1ccccc1C(=O)O)c1ccccc1O	-13%
COc1ccc(OC)c(NC(=O)Nc2cc(C(=O)O)ccc2C)c1	-14%
COC(=O)CNC(=O)CSc1nc(N)cc(=O)[nH]1	2%
Cc1nn(C)c(C(=O)NNC(=S)NCc2ccccc2)c1Cl	4%
Cc1noc(NS(=O)(=O)c2ccc(NC(=O)/C=C/c3ccccc3)cc2)c1C	-18%
O=C1c2ccccc2C(=O)N1CCCn1nnc(-c2ccc(N3CCOCC3)cc2)n1	2%
Cc1ccc(/C=N/n2c(C3CCCCC3)n[nH]c2=S)s1	-1%
CN(CC(=O)Nc1ccccc1C(F)(F)F)C(=O)C1=COCCO1	-7%
CN(C)/C=C(/C(=O)c1ccc(Cl)c(Cl)c1)c1nnnn1-c1ccccc1	-20%
CC(=O)N1CCc2cc(S(=O)(=O)CCC(=O)NCc3cccs3)ccc21	-1%
CN(C)C=NC(=O)c1cc(C(=O)c2ccc(Cl)cc2Cl)c[nH]1	31%[activator]
CC(C)CNC(=O)C1CCN(c2ccc(S(=O)(=O)N3CCOCC3)cc2Cl)CC1	0%
COc1ccc(NC(=O)C2=NN(C3CCS(=O)(=O)C3)C(=O)CC2)cn1 (configuration not stated)	-1%
Cc1c([N+](=O)[O-])c(N)nn1C	-26%
Cc1ccc(NCc2nnc(SCC(=O)Nc3ncc(C)s3)n2Cc2ccco2)c(C)c1	-1%
C=CCOC(=O)C1=C(C)N=c2s/c(=C3\C(=O)N(CC(=O)O)c4ccccc43)c(=O)n2C1c1ccc(OC)cc1 (configuration not stated)	?
COc1ccc(-n2nc(C(=O)NCc3ccco3)c3ccccc3c2=O)cc1	-5%
COc1ccc(CNCCSc2nnnn2C)cc1OC	-3%
O=C(O)c1cnn2cc(-c3[nH]ncc3[N+](=O)[O-])cnc12	-1%
CCOC(=O)c1c(C)[nH]c(C)c1S(=O)(=O)N(C)CC(=O)Nc1ccccc1OC	-3%
O=C(NC1CC(=O)N(c2ccc(Cl)cc2)C1)N1CCN(C(=O)c2ccco2)CC1 (configuration not stated)	-8%
COc1ccccc1NC(=O)CC12CC3CC(CC(Br)(C3)C1)C2	0%
COc1cc(-c2cc3n(C)c(C)c(CCC(=O)NC4CCCCC4)c(=O)n3n2)cc(OC)c1OC	-2%
COc1ccc(C(=O)C[n+]2ccc(N)c(C)c2C)cc1	4%
COc1cc(OC)c(S(=O)(=O)N2CCCCC2)cc1S(=O)(=O)N1CCCCC1	-1%
COc1cc(Cl)c(C)cc1NC(=O)Cn1cnc2sc(C)c(S(=O)(=O)N3CCCCC3)c2c1=O	-10%
CCN(C(=O)CSc1ncccc1C(=O)O)C1CCCCC1	0%
O=C(COC(=O)Cn1nnc2ccccc21)NC1CCCC1	1%
COC(=O)Cn1nnc(N2CCOCC2)n1	-2%
Cc1ccc(NC(=O)c2ccc3nccnc3c2)c(C)c1	-4%
O=C(OCc1cnc(Cl)s1)c1ccc(Cl)cc1	4%
COc1ccc(N(C(=O)c2cccnc2)S(=O)(=O)c2cc(OC)ccc2OC)cc1	-3%
CCCCn1nnc(NC(=O)c2ccc(-c3ccccc3)cc2)n1	-8%
CN(C)CCCOC(=O)c1cc2ccccc2o1	-2%
Cc1c([N+](=O)[O-])c(C/C=N/O)nn1C	-7%
COc1ccc(CNC(=O)c2c(O)c3cccc4c3n(c2=O)CCC4)cc1	-12%
CC(NC(C)c1ccccc1Cl)C(=O)Nc1cccc(S(=O)(=O)N2CCCCC2)c1 (configuration not stated)	-4%
CCOC(=O)c1ccc(NC(=O)/C=C/c2cccs2)cc1	-7%
O=C(CSc1ncn[nH]1)OCN1C(=O)c2ccccc2C1=O	-1%
Cc1ccc(OCCCC(=O)Nc2ccc3c(c2)OCCO3)cc1	-16%
COc1ccc(/C=N/Nc2nnc(-c3ncc[nH]3)c3ccccc23)cc1	-15%
COc1cc2c(cc1OC)CN(C(=O)COc1ccc(C#N)cc1)CC2	-2%
(further entries)
SMILES	KAT2A inh
CN(C)S(=O)(=O)c1ccc(C(=O)NCC(=O)N/N=C/c2cccs2)cc1	-5%
CCn1c(Cc2c(C)[nH]c3ccccc23)nnc1SCC(=O)NCc1ccco1	-3%
CCN(Cc1ccccc1)C(=O)CN1C(=S)NC(C)(C)CC1C (configuration not stated)	7%
O=C(COC(=O)c1cccs1)c1ccccc1	1%
Cc1[nH]c2ccccc2c1SCC(=O)N1CCCCC1	-2%
O=C(O)c1cccc(Oc2ccc([N+](=O)[O-])cc2)c1	-2%
Cc1cccn2c3c(c(=O)nc12)C(c1ccc(F)cc1)CC(=O)N3 (configuration not stated)	-2%
CCN(C(=O)CSc1nc2cc(Cl)ccc2c(=O)n1Cc1ccco1)C1CCS(=O)(=O)C1 (configuration not stated)	-20%
COc1ccc(Oc2nc(-c3ccccn3)ncc2OC)cc1	-10%
CCCC(=O)NNC(=O)Nc1ccccc1	-2%
CCOC(=O)c1c(-c2cccc3ccccc23)csc1NC(=O)C1C2CCC(O2)C1C(=O)O (configuration not stated)	-1%
COc1ccc(CNc2ncnc(N)n2)cc1	-4%
CSc1nc2c(cc1C#N)CCC2	-3%
Cc1ccc(S(=O)(=O)N2CCCC2C(=O)n2nc(C)cc2C)cc1 (configuration not stated)	-11%
COc1ccc(Cl)cc1C(=O)NCCc1ccc(S(=O)(=O)NC(=O)NC2CCCCC2)cc1	-4%&-1%
CC(Oc1ccccc1)C(=O)N=C1SC2CS(=O)(=O)CC2N1c1ccccc1 (configuration not stated)	-3%
Cc1cc(C)c(NC(=O)Cn2nnc(S(=O)(=O)c3ccc(C)c(C)c3)c2N)c(C)c1	-7%
O=C(Nc1ccccc1Oc1cccnc1)C1CCCN(Cc2ccc(F)cc2)C1 (configuration not stated)	-3%
CC(C)(C)OC(=O)C[C@@H]1C/C=C\C[C@@H](CC(=O)N[C@H](CO)Cc2ccccc2)C(=O)NCCOC1=O	-2%
CCC(=O)N1CCN(c2ccc(NC(=O)c3ccc4ccccc4c3)cc2)CC1	-15%
NC(N)=NC(N)=NCCc1ccccc1	-3%
CCn1c(COc2cccc(C)c2)nnc1SCC(=O)CC(=O)Nc1ccccc1OC	-7%
CCCN(C(=O)c1ccco1)c1nnc(-c2ccncc2)s1	-3%
N#Cc1c(-c2ccco2)nc(NCC2CCCO2)[nH]c1=O (configuration not stated)	-5%

A different layout for some results above:
KAT2A inh	Molecule
-2%	CCCC(=O)NNC(=O)Nc1ccccc1
-1%	CCOC(=O)c1c(-c2cccc3ccccc23)csc1NC(=O)C1C2CCC(O2)C1C(=O)O (configuration not stated)
-4%	COc1ccc(CNc2ncnc(N)n2)cc1
-3%	CSc1nc2c(cc1C#N)CCC2
-11%	Cc1ccc(S(=O)(=O)N2CCCC2C(=O)n2nc(C)cc2C)cc1 (configuration not stated)
-4%&-1%	COc1ccc(Cl)cc1C(=O)NCCc1ccc(S(=O)(=O)NC(=O)NC2CCCCC2)cc1
-3%	CC(Oc1ccccc1)C(=O)N=C1SC2CS(=O)(=O)CC2N1c1ccccc1 (configuration not stated)
-7%	Cc1cc(C)c(NC(=O)Cn2nnc(S(=O)(=O)c3ccc(C)c(C)c3)c2N)c(C)c1
-3%	O=C(Nc1ccccc1Oc1cccnc1)C1CCCN(Cc2ccc(F)cc2)C1 (configuration not stated)
-2%	CC(C)(C)OC(=O)C[C@@H]1C/C=C\C[C@@H](CC(=O)N[C@H](CO)Cc2ccccc2)C(=O)NCCOC1=O
-15%	CCC(=O)N1CCN(c2ccc(NC(=O)c3ccc4ccccc4c3)cc2)CC1
-3%	NC(N)=NC(N)=NCCc1ccccc1
-7%	CCn1c(COc2cccc(C)c2)nnc1SCC(=O)CC(=O)Nc1ccccc1OC
-3%	CCCN(C(=O)c1ccco1)c1nnc(-c2ccncc2)s1
-5%	N#Cc1c(-c2ccco2)nc(NCC2CCCO2)[nH]c1=O (configuration not stated)

Other compounds follow.
SMILES	KAT2A inh
O=C(Cc1ccccn1)c1ccc(Cl)cc1	-4%
CC1CCCC(NC(=O)c2cc(S(=O)(=O)N3CCOCC3)ccc2F)C1C (configuration not stated)	-6%
CCC(C)(C)n1nnnc1C(c1ccc(C)cc1)N(Cc1ccco1)Cc1cccs1 (configuration not stated)	-3%
COc1cc(OC)c(OC)cc1/C=C1\CCC(C2CCCC2)C1=O (configuration not stated)	-7%
O=C(O)c1cc(-c2ccccc2Cl)n[nH]1	-4%
O=C1CN(C(=O)/C=C/c2ccccc2F)c2ccccc2N1	-4%
Cc1ccc(OCC(=O)Nc2ccccc2C(=O)NC2CC2)cc1	-8%
Cc1ccc(C(=O)N2CCN(c3ccccc3F)CC2)cc1NC(=O)c1nsc2ccccc12	-8%
CCc1nn(C(C)C(=O)NCc2cccc(Cl)c2)c(=O)c2cc3occc3n12 (configuration not stated)	-3%
CC(=O)NC1=NN(C(C)=O)C(c2ccccn2)S1 (configuration not stated)	-2%
CCOc1ncccc1C(=O)OCC(=O)c1ccc(Cl)s1	1%
Cc1cc(C)n(C(=O)c2ccc(S(=O)(=O)N3CCCC3)cc2)n1	1%
CCOc1cc(CNn2nnnc2N)cc(Cl)c1OCC(=O)NC(C)(C)C	3%
CCNS(=O)(=O)c1ccc(NC(=O)Nc2ccc3c(c2)OCO3)cc1	-1%
Cn1c(=O)c2c(ncn2CC(=O)OCC(=O)Nc2cccc(Cl)c2)n(C)c1=O	-4%
COc1ccc(CCN2CC(C(=O)NCCc3cccnc3)CCC2=O)cc1 (configuration not stated)	0%
CCSc1nc2c(c(-c3ccc(C)o3)c1C#N)CCCC2	-2%
Clc1ccc(OCc2cc(-c3ccccc3)no2)cc1Cl	-4%
CCn1c(=O)c(C(=O)NCCNCCO)c(O)c2ccccc21	-8%
CCOC(=O)c1cc2c(ccn2C)n1CC(=O)N1CCCC(C)C1 (configuration not stated)	26%
CCOc1cccc(NC(=O)C2CC(=O)N(c3ccc(F)cc3)C2)c1 (configuration not stated)	0%
COc1cc(-c2noc(-c3cccs3)n2)cc(OC)c1OC	-2%
Cc1noc(C)c1COC(=O)c1cc2c3ccccc3n(C)c2s1	-10%
O=C(CN1CCN(c2ncc(C(F)(F)F)cc2Cl)CC1)NCCNc1ncc(C(F)(F)F)cc1Cl	-14%
Cc1no[n+]([O-])c1COc1ccccc1/C=C1\NC(=S)NC1=O	-14%[0.501 µM]
C#CCOCCOCCOCCNc1nc(N2CCN(C(=O)[C@H](CCC(=O)O)n3cc([C@@H](N)[C@H](C)CC)nn3)CC2)nc(N2CCN(C(=O)[C@H](CCC(=O)O)n3cc([C@@H](N)CC(N)=O)nn3)CC2)n1	2%
O=C(NCc1ccccc1)c1ccccc1NC(=O)C1CCCCC1	-4%
COc1ccccc1OCCn1c(C)c(C=O)c2ccccc21	-19%
COC(=O)c1ccc(NC(=O)Nc2ccccc2C)cc1	-6%
COC(=O)C1=C(C)N=C2SC(C)C(=O)N2C1/C=C/c1ccccc1OC (configuration not stated)	-12%
CCN1CCN(Cc2nc3c(c(=O)n(C)c(=O)n3C)n2Cc2cccc3ccccc23)CC1	-18%
COc1ccc(CCn2c(C)cc(C(=O)CN3C(=O)C(=O)N(C4CCCC4)C3=O)c2C)cc1OC	-6%
O=C(N/C(=C/c1cccs1)c1nc2ccccc2[nH]1)c1ccccc1	?
CC1=C(C(=O)N(C)C)C(c2ccc(N3CCOCC3)cc2)NC(=O)N1 (configuration not stated)	?
Cc1cc(Oc2cc(N)cc([N+](=O)[O-])c2)ccc1Cl	-3%
O=c1[nH]c2ccc(F)cc2[nH]c1=O	-4%
COCCCNC(=O)C1CCN(Cc2cc3ccccc3n2Cc2cccc(C)c2)CC1	-8%
CN1CCCN(Cc2nc(-c3ccc(Cl)cc3)no2)CC1	-5%
Cc1nn2c3c(cnc2c1-c1ccc(Cl)cc1)C(=O)CC(c1ccc(C(C)C)cc1)C3 (configuration not stated)	3%
COc1ccc(/C=N/n2c(C)nc3c([nH]c4ccccc43)c2=O)cc1CN1CCCC(C)(C)C1	-3%

Assay outcomes deposited in PubChem BioAssay by National Center for Advancing Translational Sciences (NCATS).
